Screens (PubChem)
ALR inh: inhibitors of human sulfhydryl oxidase ALR | AID 485317 | purified ALR, DTT oxidation, H2O2 HRP-luminol luminescence | inhibition, % (no concentration beside the values) | 3.8% of 290,000 active;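 active means mean and each replicate at 75% or more; inconclusive means only one of the two met; inactive means neither met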;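 further: stock transfer was 7.5 nL into about 7.5 µL; 0% = neutral wells and 100% = wells with inactivated enzyme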
Target sequence (P55789 whole entry, looked up): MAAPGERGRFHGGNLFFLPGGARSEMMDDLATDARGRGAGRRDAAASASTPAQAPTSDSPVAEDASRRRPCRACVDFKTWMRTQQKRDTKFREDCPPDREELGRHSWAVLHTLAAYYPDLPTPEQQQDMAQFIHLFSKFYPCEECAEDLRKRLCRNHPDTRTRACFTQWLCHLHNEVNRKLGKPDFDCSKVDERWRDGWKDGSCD
Beta2AR agonist: human beta-2 adrenergic receptor agonism by FAP; P07550; 0.43% of 340,000 active; Am2.2-beta2AR cells, FAP receptor internalization, flow cytometry; reference of the scale not given here; response, % (test concentration not listed);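 active means response above a set limit, near 3 SD of response in nonfluorescent compounds, cut at about 42% in these data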;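 further: stock transfer was 100 nL into about 11 µL; a reference agonist was the positive control; negative values mostly stem from fluorescent compounds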
Target sequence (P07550 whole entry, looked up): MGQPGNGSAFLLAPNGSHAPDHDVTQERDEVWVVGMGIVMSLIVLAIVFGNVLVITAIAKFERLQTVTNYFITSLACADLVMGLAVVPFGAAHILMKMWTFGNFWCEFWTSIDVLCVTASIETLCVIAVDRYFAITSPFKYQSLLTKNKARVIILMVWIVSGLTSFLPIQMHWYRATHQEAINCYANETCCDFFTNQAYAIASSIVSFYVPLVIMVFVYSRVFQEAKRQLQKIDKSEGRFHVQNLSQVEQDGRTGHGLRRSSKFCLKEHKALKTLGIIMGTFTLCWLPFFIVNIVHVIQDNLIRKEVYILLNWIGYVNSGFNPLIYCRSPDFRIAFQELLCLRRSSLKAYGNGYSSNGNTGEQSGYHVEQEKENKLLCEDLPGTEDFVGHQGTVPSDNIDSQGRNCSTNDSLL
HNF4A DNA FP: change in binding of human HNF4 alpha to DNA; HNF4a-FITC DNA binding, fluorescence polarization, 1 h; 0.3% of 360,000 active; activity change, % at 10 µM; AID 1224865; in the data active means activity change above about 30%, passing the limit was not always enough;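 further: controls were the assay level and a saturating level of protein; the project sought stronger binding though the title names inhibitors; some compounds called inactive have numbers as strong as hits; positive values seem to mean higher polarization but the record does not say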
Target sequence (P41235 whole entry, looked up): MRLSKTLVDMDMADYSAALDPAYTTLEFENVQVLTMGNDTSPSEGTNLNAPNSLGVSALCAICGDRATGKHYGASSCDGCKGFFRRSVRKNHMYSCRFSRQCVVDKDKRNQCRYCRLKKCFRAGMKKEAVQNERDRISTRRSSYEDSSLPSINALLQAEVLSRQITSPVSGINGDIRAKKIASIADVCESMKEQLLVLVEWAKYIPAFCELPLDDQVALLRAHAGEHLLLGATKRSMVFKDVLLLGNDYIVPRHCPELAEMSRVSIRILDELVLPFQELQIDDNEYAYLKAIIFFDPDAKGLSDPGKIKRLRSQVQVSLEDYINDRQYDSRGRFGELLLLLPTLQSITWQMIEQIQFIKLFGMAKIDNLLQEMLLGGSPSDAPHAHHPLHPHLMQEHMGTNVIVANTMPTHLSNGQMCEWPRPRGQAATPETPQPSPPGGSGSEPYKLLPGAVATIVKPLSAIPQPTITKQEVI
RanGTP-Impb inh: inhibitors of RanGTP-importin-beta interaction, primary screen, biochemical, FRET, CFP-Ran, YFP-importin-beta, homogeneous. cell-free CFP-Ran/YFP-importin-beta FRET ratio. inhibition, % (concentration not given with the values). 1.1% of 300,000 active. AID 2216;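 active means most replicates above 15%; inconclusive means exactly half above 15%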;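 further: 0% = DMSO wells and 100% = Ran loaded with GDP instead of GTP; wells of about 40 µL received 100 nL stock; the first replicate is given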
LANA-H2A inh: blocks KSHV LANA binding to histone H2A/H2B | inhibition, % (no concentration beside the values) | AID 2629 | Q9QR71 | cell-free LANA-H2A/H2B peptide, fluorescence polarization | 0.6% of 320,000 active; in the data active means inhibition mostly above about 10%, no sharp cut-off; inactive means mostly below about 6.7%;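 further: stock transfer was 7.5 nL into about 10 µL; 0% = median of vehicle wells and 100% = median of positive control wells; one replicate is shown; the record names a cut of 25% in any replicate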
Vif A3G: HIV-1 Vif–A3G interaction blockers – biochemical, TR-FRET, GST-Vif 1-94, biotin-A3G peptide, dose response retest, primary screen (AID 1117319); TR-FRET GST-Vif / biotin-A3G peptide binding; higher % means a stronger effect; test concentration not given here; strong numbers were not always called active; inhibition, %; hits with a dose series show IC50 in µM; 0.57% of 260,000 active;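 active means above the screen mean plus three standard deviations and confirmed in dose response; inconclusive means results disagree or hit not tested in dose response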;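 further: Vif residues 1-94 fused to GST binding biotinylated APOBEC3G peptide 110-148; 0% = full assay without inhibitor and 100% = GST in place of GST-Vif; retest series ran down from 100 µM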
Calb FLC: C. albicans growth modulation with fluconazole; AID 1979; 0.57% of 300,000 active; C. albicans CaCi-2 (fluconazole-resistant clinical isolate) + fluconazole, Alamar Blue growth, 48 h; growth inhibition, % (test concentration not listed);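 active means most replicates above 75%; inconclusive means exactly half above 75%; inactive means most below 75%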;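 further: all wells also contain fluconazole at 8 µg/ml as a sub-toxic cotreatment; 0% = median of DMSO wells and 100% = median of geldanamycin control wells; wells of about 8 µL received 7.5 nL stock; the first replicate is given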
* hit, by the source's call; u = inconclusive; x = no result given.

SMILES	ALR inh	Beta2AR agonist	HNF4A DNA FP	RanGTP-Impb inh	LANA-H2A inh	Vif A3G	Calb FLC
CCCc1cc(=O)oc2cc(OCC(=O)OC)cc(OCC(=O)OC)c12	x	x	x	3.0	x	1%	-5
O=S(=O)(c1cc(F)ccc1F)N1CCN(c2ncnc3ccccc23)CC1	-3	0	3.5	x	-1.0	x	x
COc1cc([N+](=O)[O-])ccc1NC(=O)COC(=O)CCS(=O)(=O)c1ccc(C)cc1	-3	-4	1.4	x	1.0	7%	-6
Cc1cnc(NC(=O)Cn2cnc3c2c(=O)n(C)c(=O)n3C)s1	0	-1	1.1	-0.5	-0.6	1%	3
COc1cccc(N(CC(=O)NCc2ccco2)C(=O)CCC(=O)Nc2nccs2)c1	6	6	2.3	-5.1	-11	-6%	-3
COc1ccc(/C=N/NC2=NS(=O)(=O)c3ccccc32)cc1OC	-1	0	3.0	-0.3	0.8	-1%	-5
O=C(CSc1ncn(-c2ccccc2)n1)Nc1ccc2c(c1)OCCO2	-9	0	0.6	u	-1.3	31%	-4
Cc1ccc(-c2nn3c(C)nnc3s2)cc1NC(=O)COc1ccc(Cl)cc1	x	1	2.2	1.3	1.7	3%	-4
O=C(c1ccco1)N1CCN(C(=O)C2CCN(S(=O)(=O)c3cccc4nsnc34)CC2)CC1	4	5	0.7	-2.9	-3.4	x	-1
COC(CSc1ncnc2c1oc1nc3c(cc12)COC(C)(C)C3)OC	x	0	1.1	1.3	2.7	x	4
C[C@]12CS(=O)(=O)C[C@H]1SC(=S)N2c1ccccc1	-13	-1	2.5	1.8	5.9	19%	-2
Cc1cc(N2C(=O)C(O)=C(C(=O)c3cc4ccccc4o3)C2c2cccc(Br)c2)no1 (stereo not given)	98*	19	0.3	4.2	-5.2	-62%	-3
CC(C)(c1ccccc1)c1ccc(OCC2CO2)cc1 (stereo not given)	-19	-4	-3.9	0.2	-1.6	x	-2
Cc1cc(OCC(=O)NC2CC(C)(C)NC(C)(C)C2)c(C)cc1Br	-3	4	1.9	0.2	-4.8	x	15
C=CCN1C(c2ccc(OCC)cc2)=CS/C1=C(\C#N)c1nnc2n1CCCCC2	-2	-8	3.4	1.3	0.0	u	-21

Look-ups from the list.
Result for O=S(=O)(c1cc(F)ccc1F)N1CCN(c2ncnc3ccccc23)CC1 in LANA-H2A inh: -1.0
Result for O=C(CSc1ncn(-c2ccccc2)n1)Nc1ccc2c(c1)OCCO2 in Calb FLC: -4
Result for C=CCN1C(c2ccc(OCC)cc2)=CS/C1=C(\C#N)c1nnc2n1CCCCC2 in HNF4A DNA FP: 3.4

Later entries.
SMILES	ALR inh	Beta2AR agonist	HNF4A DNA FP	RanGTP-Impb inh	LANA-H2A inh	Vif A3G	Calb FLC
O=C(c1ccc([N+](=O)[O-])o1)N1CCOCC1	-31	-5	-0.9	3.7	0.1	12%	15
O=C(CN(C(=O)CNC(=O)c1cccs1)c1ccccc1F)NC1CCCCC1	-3	-6	5.7	-0.9	-1.4	x	-3
CC(=O)CSc1nc(-c2ccccc2)c(-c2ccccc2)o1	68	-1	-0.7	1.1	-1.3	-3%	-14
O=C(c1cccc([N+](=O)[O-])c1)N1CCCC(C(=O)N2CCc3ccccc3C2)C1 (stereo not given)	2	-3	-2.0	u	0.1	x	x
CCCc1ccc(OC(=O)c2cccs2)cc1	1	1	-0.4	2.8	0.8	4%	-8
O=C(COC(=O)Cc1cccc(C(F)(F)F)c1)Nc1ccccc1	-19	1	1.5	-2.3	-3.5	x	-2
CCCC(=O)Nc1ccc(C(=O)NCc2ccccn2)cc1	-6	-2	1.0	-4.1	-0.8	0%	u
COc1ccc(-c2nnc(SCC(=O)c3ccc4c(c3)OCCO4)o2)cc1	5	x	x	-2.7	-3.0	x	2
Cc1cccc(C)c1NC(=O)NC1(C(=O)N2CCCC2)CCCCC1	x	7	0.8	-3.0	1.4	x	3
O=C(Nc1ccc(Cl)cn1)C1CCCN1S(=O)(=O)c1cccc2ccccc12 (stereo not given)	-13	-20	4.6	u	2.0	8%	2
CN1CCc2c(sc3nc(NN)n(-c4ccc(Cl)cc4)c(=O)c23)C1	2	4	19	6.0	-8.8	27%	-2
Cc1ccc(CN2CCN(Cc3cccc(OCCO)c3)CC2CCO)o1 (stereo not given)	-2	2	1.4	x	2.5	x	-1
CSc1nc(O)c(C(c2ccc(C)cc2)c2c(O)nc(SC)[nH]c2=O)c(=O)[nH]1	89*	2	4.5	-2.7	17	x	13
C[C@H]1CN([C@@H](C)CO)C(=O)c2cccc(NC(=O)c3nc4ccccc4s3)c2O[C@H]1CN(C)C(=O)Nc1ccc(F)cc1	-2	-1	0.0	x	-0.9	x	x
COc1ccc(NC(=O)C2=C(C)Nc3nc(CCCO)nn3C2c2ccc(OC)c(OC)c2)cc1 (stereo not given)	-6	-2	3.5	0.1	-2.9	32%	5
COc1cc(C2NC(=O)NC(C)=C2C(=O)OCC2CCCCC2)ccc1O (stereo not given)	27	-12	3.6	1.7	-3.9	u	17
O=C(c1ccco1)N1CCC(c2nc3c(nnn3Cc3c(Cl)cccc3Cl)c(=O)[nH]2)CC1	-10	-2	2.2	2.7	-3.8	28%	9
C[C@@H](NC(=O)C(=O)c1c[nH]c2ccccc12)c1ccccc1	-4	2	-7.6	-0.8	-2.6	x	5
O=C(N/N=C/c1cccn1-c1ccc(O)cc1)c1cccc2ccccc12	-5	-15	2.5	-1.5	-0.5	0%	23
O=C(NCc1ccccc1F)C1CCC(=O)N(Cc2ccc(Cl)cc2)C1 (stereo not given)	-3	8	-0.1	6.9	11	x	-21
CCOc1ccc(CC(=O)NCCc2cnc[nH]2)cc1	x	4	0.0	-0.8	-0.9	x	1
Cc1ccc(C)n1-c1nn(S(=O)(=O)c2cccc(C(F)(F)F)c2)c2cccc(F)c12	3	-3	0.4	-1.8	1.8	x	1
CN(Cc1ccon1)C(=O)CC1C(=O)NCCN1Cc1cccc(Oc2ccccc2)c1 (stereo not given)	14	-5	-2.2	-3.5	3.0	9%	-3
O=C(NC12CC3CC(CC(C3)C1)C2)N1CC2Cc3cccc(=O)n3C(C2)C1 (stereo not given)	-30	-4	0.3	7.1	-1.7	-3%	-32
CCCCn1c(SCC(=O)c2ccc3c(c2)OCCO3)nnc1-c1ccoc1C	17	0	2.0	-2.0	-0.3	2%	-7
Cc1ccccc1C(=O)N1CCN(c2ccc(NC(=O)c3ccc4c(c3)OCO4)cc2)CC1	4	6	3.2	-1.4	-4.5	-2%	-4
C=CCn1c(SCC(=O)c2ccc(CNC(C)=O)o2)nc2ccccc2c1=O	31	2	0.4	-0.2	-5.0	32%	10
O=C1/C(=C/c2cccc([N+](=O)[O-])c2)CCc2ccccc21	-5	24	-1.6	2.5	-4.7	24%	8
CC(C(=O)NCc1ccc(F)cc1)n1ccc2cc(S(=O)(=O)N3CCCC3)ccc21 (stereo not given)	2	24	-3.0	-3.0	-1.3	3%	-4
COc1ccc(N(C(=O)CS(=O)CC(=O)Nc2ccc(F)cc2)C(C(=O)NC2CCCCC2)c2cccs2)cc1 (stereo not given)	-13	1	0.3	1.5	0.9	x	20
Cc1cccc(C)c1NC(=S)NC1CCCCC1	22	1	0.0	u	-1.4	x	-25
CSc1nc2ccc3nc(NC(=O)c4ccc(Cl)s4)sc3c2s1	91*	5	-0.6	-2.5	1.1	-6%	-1
Cc1ccc(C)c(CN2C(=O)CSc3ccc(C(=O)NCC(C)CN4CCC(C)CC4)cc32)c1 (stereo not given)	2	6	-0.2	1.8	1.1	x	-8
Cc1ccc(Cl)cc1NC(=O)c1cccc(OC(F)F)c1	-4	-3	-3.7	-2.9	0.3	-7%	-2
CCCn1nnc(NCc2ccc(OCc3cccs3)c(OC)c2)n1	-12	-8	-1.0	-3.3	6.0	-2%	-3
COC(=O)c1cn(Cc2c(C)cc(C)cc2C)nn1	-8	33	0.1	-2.4	-1.2	-1%	-5
COCCn1nnnc1CN1CCC(Cc2ccccc2)CC1	-1	-4	-1.2	0.0	-2.4	3%	-17
Nc1cc(=O)[nH]c(SCC(=O)NNC(=O)c2ccccc2)n1	x	-5	2.1	3.5	2.0	4%	3
Cc1cc(C(=O)N/N=C2\CC(=O)c3ccccc32)c(C)n1-c1ccc(F)cc1	-17	8	2.0	1.8	-0.8	25%	12
CC(SC(C)C(=O)NN=Cc1ccc(F)cc1)C(=O)NN=Cc1ccc(F)cc1 (stereo not given)	x	1	3.1	x	x	-8%	x
Cn1ccc2cc(-c3csc(N4CCC(C(N)=O)CC4)n3)ccc21	-7	0	4.6	x	-1.3	x	x
CCCOc1cccc(C(=O)NC(=S)Nc2ccc(N3CCN(C)CC3)cc2)c1	37	19	1.5	2.6	-1.1	8%	5
CC(C)C(=O)NC(=S)Nc1ccccc1F	-2	11	-3.0	4.7	3.1	-5%	-9
COc1ccc(S(=O)(=O)N2CCOCC2)cc1NC(=O)CCNC(=O)c1ccc(Cl)cc1	x	6	0.8	x	x	7%	x
CCCN1CC(O)=C(C#N)C1=O	-5	-3	5.7	24*	3.0	-8%	-9

Continued; it opens with the 2 that closed the last part.
SMILES	ALR inh	Beta2AR agonist	HNF4A DNA FP	RanGTP-Impb inh	LANA-H2A inh	Vif A3G	Calb FLC
COc1ccc(S(=O)(=O)N2CCOCC2)cc1NC(=O)CCNC(=O)c1ccc(Cl)cc1	x	6	0.8	x	x	7%	x
CCCN1CC(O)=C(C#N)C1=O	-5	-3	5.7	24*	3.0	-8%	-9
CCOc1ccc(Br)cc1-c1noc(-c2cccs2)n1	x	6	-2.4	u	3.7	-3%	-1
COc1cccc(NS(=O)(=O)c2ccc(-c3coc(C)n3)cc2)c1	-4	2	1.1	3.9	-1.3	x	-9
COc1ccc(-n2c(-c3ccccc3)c[n+]3c2CCC3)cc1	-4	-1	4.0	1.0	-1.8	0%	2
CC1CCCC(C)N1C(=O)CSc1nnc(-c2cccs2)o1 (stereo not given)	-6	-7	0.9	3.9	-2.8	-4%	4
S=C(NCCc1ccccc1)Nc1ccc(Br)cc1	1	20	1.0	-2.4	-3.0	-6%	1
CCOc1ccccc1C(=O)N(C)Cc1cc2ccccc2[nH]c1=O	2	0	0.1	0.7	-4.8	10%	0
Cc1nc2sc(C(c3ccc(C(C)C)cc3)N3CCN(CCO)CC3)c(O)n2n1 (stereo not given)	13	-4	-3.3	3.9	1.4	0%	5
Cc1cccc(C)c1NC(=O)N1C2CCC1CC(O)(c1cccnc1)C2 (stereo not given)	-17	6	0.9	1.7	-4.5	-5%	4
COc1ccc(/C=N/OCc2ccccc2C#N)c(OC)c1	x	-1	2.5	-1.0	-0.3	-5%	0
CCN(CC(=O)NCc1ccc2c(c1)OCO2)S(=O)(=O)c1ccc(F)cc1	-1	-7	0.0	1.4	1.8	x	-1
COc1ccc(CNC(=O)C(OC(=O)c2nsc(Cl)c2Cl)C(C)C)cc1 (stereo not given)	-3	7	0.7	u	-4.5	7%	-14
CC(C)(C)OC(=O)C[C@H]1C/C=C\C[C@H](CC(=O)NCCO)C(=O)N[C@@H](Cc2ccccc2)COC1=O	-3	-7	2.1	x	10	x	x
CCC1(C)Cc2ccccc2-c2nc3n(c(=O)c21)CCS3 (stereo not given)	4	-11	0.2	-0.3	1.5	x	-6
CCN(C[C@H]1N[C@@](C)(C(=O)OC)[C@H]2C(=O)N(C)C(=O)[C@@H]12)C(=O)COC	x	-4	-2.8	x	x	2%	x
COc1ccccc1CC(=O)NC(=O)c1ccccc1O	-10	-2	1.9	5.9	4.5	0%	2
CCOc1cccc2cc(-c3nnc(NCc4ccc5c(c4)OCO5)s3)c(=O)oc12	1	-2	52*	2.2	x	8%	15
COc1ccc(NC(=O)CCNC(=O)c2ccc([N+](=O)[O-])cc2)cc1S(=O)(=O)N1CCOCC1	x	-5	-1.4	x	x	4%	x
O=C1c2ccccc2C(=O)c2c1ccc1c(=O)n(-c3ccccc3)[nH]c21	x	0	-2.5	-2.7	x	u	-54
